High-throughput results (PubChem BioAssay)
VDR inhibitor – blocks the human vitamin D receptor. VDR-SRC2-3 peptide fluorescence polarization, 2 h. 400,000 compounds, 0.93% hits. Potency, µM, inactives show max response, negative = inhibition, hits mostly inhibitors; active means well fitted inhibition curve with a large enough effect; inconclusive means small, poorly fitted or top-dose-only effect, or another doubt; inactive means no such curve, though single readings can be large or run the other way; further: series mostly up to about 120 µM
Target sequence (P11473 whole entry, looked up): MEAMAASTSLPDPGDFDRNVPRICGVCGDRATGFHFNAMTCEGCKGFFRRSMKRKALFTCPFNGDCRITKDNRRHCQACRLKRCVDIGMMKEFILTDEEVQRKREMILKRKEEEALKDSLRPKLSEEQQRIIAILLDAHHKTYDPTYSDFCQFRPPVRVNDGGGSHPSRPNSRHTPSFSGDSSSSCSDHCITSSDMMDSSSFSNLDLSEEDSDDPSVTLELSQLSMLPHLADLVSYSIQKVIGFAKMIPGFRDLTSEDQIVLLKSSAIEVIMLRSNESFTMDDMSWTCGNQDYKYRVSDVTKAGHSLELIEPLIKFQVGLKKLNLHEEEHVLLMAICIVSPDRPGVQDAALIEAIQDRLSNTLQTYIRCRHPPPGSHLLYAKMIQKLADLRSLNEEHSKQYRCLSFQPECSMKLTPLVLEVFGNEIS
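Fluorescence polarization assay measuring small-molecule disruption of VDR binding to the coregulator peptide SRC2-3. Compounds were pin-transferred (23 nl) into the reagent mix and incubated 2 h at room temperature before reading.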
Numbers without * were called inactive; ? = inconclusive; & = joins results of further samples; [ ] = another dose, or the depositor's remark. On the % scale 0 is the no-effect control and ±100 the full control effect; potency means the concentration at half of the fitted maximal effect. An excerpt; rates above refer to the full screens.

SMILES | VDR inhibitor
CC(C)Cn1cc(C(=O)NCC2CCCO2)c2c3ccccc3n(C)c2c1=O (centres undefined) | -10%
Clc1ccc2c(N3CCOCC3)ccnc2c1 | -13%
COc1ccc(-c2cc(C(C)=O)c(C)n2CCC(=O)NC2CCCCC2)cc1 | 7%
Cc1cnc(C(=O)NCc2ccc(Cl)cc2Cl)cn1 | 6%
Cc1ccc(S(=O)(=O)N(CC(=O)NCc2ccco2)c2ccccc2C)cc1 | 6%
O=C(NCc1ccco1)c1sc2cc(F)ccc2c1Cl | -7%
CC(=O)Nc1ccc(C2=NNC(=NCC3CCCO3)SC2)cc1 (centres undefined) | ?
O=C(COc1ccc(-n2cnnn2)cc1)Nc1ccccc1Cl | -10%
CCOC(=O)C1CCN(C(=O)Cn2nc(C)n3c(cc4cc(C)ccc43)c2=O)CC1 | -4%&2%
CCOc1ccc(N2C(=O)CC(NCC3CCCO3)C2=O)cc1 (centres undefined) | 0%
CCC(C)C(NC(=O)C(C)NC(=O)CNC(=O)CNC(=O)OCc1ccccc1)C(=O)OC (centres undefined) | -4%
CCOC(=O)c1sc2ncn(CC(=O)Nc3ccc(N(C)C)cc3)c(=O)c2c1C | -30%
CCCN(Cc1ccccc1)S(=O)(=O)c1ccc(N2C(=O)CCC2=O)cc1 | 12%
CCc1ccc(NC(=O)C2CCN(S(=O)(=O)c3cnc[nH]3)CC2)cc1 | 1%
COc1ccc(OCC(=O)NNC(=O)c2nn(C)c(=O)c3ccccc23)cc1 | 6%
Cc1cc(C)cc(N(C(C)C(=O)N2CCCC2)S(C)(=O)=O)c1 (centres undefined) | -7%
Cc1cc(C(=O)OCC(=O)NCc2cccs2)c2ccccc2n1 | -3%
Cc1ccsc1C(=O)NNC(=O)c1ccc(NS(=O)(=O)c2cccs2)cc1 | -2%
CCCC(=O)Nc1ccc2c(c1)nc1n2CCSC1 | 7%
CCOC(=O)N1CCC(N(CCN(C)C)C(=S)Nc2cccc(OC)c2)CC1 | 3%
Cc1c(C(=O)N2CCOCC2)cc(C(C)(C)C)n1-c1ccccc1 | -9%
COc1ccc(C(CNC(=O)CNC(=O)c2cccc(C)c2)N2CCCCC2)cc1 (centres undefined) | -6%
COc1ccc(C2CC(c3ccc(Cl)cc3Cl)n3nc(N)nc3N2)cc1 (centres undefined) | -15%
CCOC(=O)C1=C(c2ccccc2)O/C(=C(/C(=O)OC)C(F)(F)F)S1 | 0%
O=C(NCCCN1CCOCC1)C(=O)NCCc1ccccc1 | -7%
CC(Oc1ccccc1)C(=O)Nc1ccc(C(=O)OCc2cc(=O)n3ccsc3n2)cc1 (centres undefined) | 2%
CCOc1ccc(NC(=O)c2cc(=O)c3ccc(C)c(C)c3o2)cc1 | 11%
CC(C)CN(CC(C)C)C(=O)CC(=O)NC(=O)c1ccc(Cl)cc1 | 3%
Cc1ccc(C(=O)NCc2ccco2)cc1S(=O)(=O)Nc1cccc(C)c1C | 7%
CCOc1ccccc1N(C(=O)c1ccco1)C(C(=O)NC1CCCC1)c1cccs1 (centres undefined) | 13%
COc1cccc(C(=O)N2CCC(C(=O)NCc3ccc(C)cc3)CC2)c1 | 14%
Cc1cc(-c2csc(N)n2)c(C)n1CCc1ccccc1 | 39%[activator]
CCn1c(-c2cc(-c3ccccc3OC)nc3ccccc23)n[nH]c1=S | -22%
O=[N+]([O-])c1nn(-c2cccc(Cl)c2)n(O)c1=NCc1cccnc1 | -29%
Cc1ccc(-n2nnnc2C(Cl)(Cl)c2nnnn2-c2ccc(C)cc2)cc1 | 6.3µM*
Cc1ccc(C)c(NS(=O)(=O)c2ccc(OCC(=O)N3CCOCC3)cc2)c1 | 2%
Cc1ccc(C(=O)O)cc1NC(=O)C1=CSCCO1 | 9%
CCOC(=O)c1cc2cc(OC)ccc2[nH]1 | 10%
COc1cccc(CNC(=O)c2nn(C)c3c2CSc2ccccc2-3)c1 | 2%
Cc1ccc(-c2n[nH]c(=S)n2/N=C/C=C\c2ccccc2[N+](=O)[O-])cc1 | -16%
CCOC(=O)C1=NN(C(C)=O)C2(CC(=O)N(c3cccc(C)c3)C2=O)C1 (centres undefined) | -23%
C=CCOC(=O)C1=C(C)NC(SCC(=O)Nc2nccs2)=C(C#N)C1c1ccc(Cl)cc1 (centres undefined) | -12%
CCOC(=O)c1cccc(NS(=O)(=O)c2c(C)nc3sc(C)cn3c2=O)c1 | 1%
COc1cccc(Cn2nnc(C(=O)NCc3ccc(F)cc3)c2N)c1 | ?
C=CCc1c(C)nc(-c2ccccc2)nc1N/N=C/c1ccccc1 | -14%
CCCCNC(=O)CSc1nc(-c2ccc(OC)cc2)cc(C(F)(F)F)n1 | -15%
COc1ccc(-n2nc(C(=O)Nc3cccc(C)n3)c3c4ccccc4n(C)c3c2=O)cc1Cl | -10%
O=C(C1CC(=O)N(c2ccc(F)cc2)C1)N1CCCCC1 (centres undefined) | -15%
Cc1ccc2c(c1)N(CC(=O)NCc1cccc(Cl)c1)C(=O)c1cccnc1O2 | -4%
CCCn1c(=N)c(C(=O)NC2CCCC2)cc2c(=O)n3cccc(C)c3nc21 | 6%&1%
COc1cccc(CNC(=O)C(=O)N2CCC3(CC2)OCCN3S(=O)(=O)c2ccc(C)cc2)c1 | -1%
CCCCSc1nc2sc3c(c2c(=O)[nH]1)CCC3 | -9%
Cc1ccc(C2=NS(=O)(=O)N(C)C(C(=O)NCc3ccccn3)=C2)cc1 | -16%
Cn1c(C(=O)OC(C(=O)NCc2ccco2)c2ccncc2)cc2sccc21 (centres undefined) | 13%
O=[N+]([O-])c1ccc(NS(=O)(=O)c2cccc3cccnc23)cc1 | 7%
Cc1cc(C)cc(Oc2cc(NC(=O)c3cn(C)nc3C)cc([N+](=O)[O-])c2)c1 | 16%
COc1ccc(C2N(c3cccc(Cl)c3)C(=O)C3CCCN32)cc1 (centres undefined) | -6%
CN(C)CCN=Cc1c(O)n(Cc2ccccc2)c(=O)c2ccccc12 | -12%
O=C(N/C=C/c1ccc(Cl)cc1)NCc1ccc(Cl)cc1 | 2%
COc1ccc(CNC(=O)C2CCN(C(=O)c3ccccc3)CC2)cc1 | 9%

The list continues.
structure	VDR inhibitor
CCOC(=O)c1ccc(NC(=O)c2c(NC(C)=O)sc3c2CCC(C)C3)cc1 (centres undefined)	-5%
CCCCOc1ccc(N(CC(=O)NCc2ccccc2)C(=O)c2csnn2)cc1	-5%
Cc1cc(C(=O)Nc2sc3c(c2C#N)CCCCC3)cs1	9%
Cc1ccc2c(CN3CCN(C(=O)c4ccc(Br)cc4)CC3)cc(=O)oc2c1	6%
Cc1ccc(COC(=O)c2nn(-c3ccccc3)nc2N)cc1	-7%
C=CCc1c(C)nc(N)[nH]c1=O	22%
CCC(=O)N1CCc2cc(CNC(=O)Nc3ccccc3Cl)ccc21	5%
CCCCCCCC/C=C\CCCCCCCC(=O)NCc1ccc(O)c(OC)c1	0%&9%
CC(C)C(NC(=O)CN1C(=O)c2cccc3cccc1c23)C(C)C	1%
CC1CC(C)CN(CC(C)(C)NS(=O)(=O)c2ccc(Cl)cc2)C1 (centres undefined)	20%
Cc1ncsc1CCOC(=O)c1ccc(N2CCOCC2)c([N+](=O)[O-])c1	4%
O=C(O)CCC(=O)NNC(=O)COc1ccc2ccccc2c1Br	1%
O=C(Cn1cnc2ccccc21)N/N=C/c1ccccc1[N+](=O)[O-]	-8%
CCN1CCCCC(=N/O)/C(=N/O)CCCC1	1%
CCCCN1CC[C@H]2C=CC[C@@H](C(=O)Nc3ccc(Cl)c(C(F)(F)F)c3)[C@H]2C1=O	-5%
COc1cc(/C=C2\CCc3ccccc3C2=O)cc(OC)c1OC	?
C/C(CCc1ccco1)=N/NC(=O)CCC(=O)Nc1ccc(Br)cc1	4%
CCOC(=O)NC(=O)/C(C#N)=C\Nc1sccc1C(=O)OC	4%
O=C(O)c1cc(-n2cccc2)ccc1N1CCOCC1	9%
O=C(Nc1cccc2ccccc12)OCc1cncs1	-6%
O=C(OCC(=O)N1CCCc2ccccc21)c1cncc(Br)c1	8%
CC1CCN(C(=O)C2CCCN(S(C)(=O)=O)C2)CC1 (centres undefined)	1%
CCOC(=O)C(CCSC)NC(=O)CN (centres undefined)	4%
Cc1ccc(-c2nnc3c4ccccc4c(C)nn23)cc1NC(=O)c1ccccc1Cl	-1%
COc1cc(/C=N\NC(=O)CN2CCOCC2)ccc1OCC(=O)Nc1ccc(C)c(C)c1	27%
COc1ccc(/C=N/Nc2nc(-c3ccc(Cl)cc3)cc(C(F)(F)F)n2)c(OC)c1	7%
Cc1noc(C)c1S(=O)(=O)Nc1ccc2c(c1)C(=O)N([C@H](C)CO)C[C@H](C)[C@@H](CN(C)C(=O)NC1CCCCC1)O2	-6%
CC(C)(C)c1ccc(-c2ncccc2O)cc1	-18%
O=C(COC(=O)c1ccc([N+](=O)[O-])cc1)NC1CCCC1	-4%
O=C(CN(C(=O)c1nsc(Cl)c1Cl)c1cccc(F)c1)NC1CCCC1	-3%
CCOC(=O)c1oc2ccc(S(=O)(=O)n3nc(-c4cc(OC)c(OC)c(OC)c4)cc3N)cc2c1C	-16%&4%
CC(C)(C)c1ccc(S(=O)(=O)N2CCCCC2C(=O)NCc2ccccn2)cc1 (centres undefined)	8%
COC(=O)C1CSC(C(=O)OC)N1C(=O)Nc1ccc(Cl)c(Cl)c1 (centres undefined)	18%
Cc1ccc2c(c1)NC(=O)C(CC(=O)NCCN(C)C)O2 (centres undefined)	10%
Cc1ccc(N2CC(NC(=O)c3ccccc3Br)CC2=O)cc1 (centres undefined)	-5%
CCSc1nc(-c2cccnc2)ccc1C#N	-5%
COc1ccc(-c2ccc3oc(-c4ccc(OC)cc4)c(C#CC4(O)CCCCC4)c3c2)cc1	-23%
CCOC(=O)COn1c(=O)c(-c2ccc(OCC)cc2)[n+]([O-])c2ccccc21	-10%
Cc1ccc(N(Cc2cccs2)C(=O)COc2cccc(C)c2)cc1	12%
CCCCc1c(O)cc(C)[nH]c1=O	35%[activator]

Looked up by compound from the entries so far:
structure	VDR inhibitor
COc1ccc(OCC(=O)NNC(=O)c2nn(C)c(=O)c3ccccc23)cc1	6%
COc1cc(/C=C2\CCc3ccccc3C2=O)cc(OC)c1OC	?
Cc1cc(C)cc(N(C(C)C(=O)N2CCCC2)S(C)(=O)=O)c1 (centres undefined)	-7%

VDR inhibitor, what is marked active above
structure	VDR inhibitor
Cc1ccc(-n2nnnc2C(Cl)(Cl)c2nnnn2-c2ccc(C)cc2)cc1	6.3µM*

Returning to the listing with the 6 entries that preceded the break.
structure	VDR inhibitor
Cc1ccc(N2CC(NC(=O)c3ccccc3Br)CC2=O)cc1 (centres undefined)	-5%
CCSc1nc(-c2cccnc2)ccc1C#N	-5%
COc1ccc(-c2ccc3oc(-c4ccc(OC)cc4)c(C#CC4(O)CCCCC4)c3c2)cc1	-23%
CCOC(=O)COn1c(=O)c(-c2ccc(OCC)cc2)[n+]([O-])c2ccccc21	-10%
Cc1ccc(N(Cc2cccs2)C(=O)COc2cccc(C)c2)cc1	12%
CCCCc1c(O)cc(C)[nH]c1=O	35%[activator]
CCOc1nnc(C)c2c(C)n(-c3cccc(Cl)c3)nc12	11%
CC1CCc2c(sc3nc(-c4cc5cc(Br)ccc5oc4=O)[nH]c(=O)c23)C1 (centres undefined)	?
CC(C)n1nnnc1SCC(=O)Nc1ccccc1N1CCOCC1	0%
O=C(COC(=O)c1n[nH]c(=O)c2ccccc12)Nc1ccccc1	5%
Cc1ccc(C(=O)NCCc2sc(C)nc2C)cc1	6%
COc1ccc(C2CC(c3ccccc3)=NN2C(=O)COC(=O)c2nc3nccc(C)n3n2)cc1 (centres undefined)	-17%
CN(C)CCN1C(=O)c2cccc3cc([N+](=O)[O-])cc(c23)C1=O	4%
COc1ccc(S(=O)(=O)N2CCCCCC2)cc1NC(=O)CN1C(=O)CNC1=O	-9%
Cc1ccc(NC(=O)c2ccco2)c(OCc2cc(=O)n3cc(C)sc3n2)c1	-6%
COc1cccc(CN2C(=O)C(C)N(C(=O)c3ccccc3)c3ccccc32)c1 (centres undefined)	-14%
O=C(NCc1cccnc1)/C(=C/c1ccc(-c2cccc(C(F)(F)F)c2)o1)NC(=O)c1ccccc1	-7%
O=C(c1ccccc1F)N1CCN(c2ccc([N+](=O)[O-])c3cccnc23)CC1	3%
CCOC(=O)CNC(=O)CN1CCC(c2nc3ccccc3[nH]2)CC1	-8%
CC(C(=O)O)n1c(C(F)(F)F)nc2ccccc21 (centres undefined)	-6%
CCOC(=O)c1cccc(NC(=O)c2c(NCc3ccccc3)[nH]c(=O)[nH]c2=O)c1	19%
COc1ccc(-c2cnc3ncnn3c2N)cc1	-10%
CCCOC(=O)c1ccc(NC(=O)Oc2ccccc2)cc1	14%
CN(C)c1ccc(C=C2C(=O)OC(C)(C)OC2=O)cc1	-8%
COc1cc(Nc2cc(C)nc3nc(C)nn23)cc(OC)c1OC	-2%
COc1ccc(C(=O)/C=C/C(=O)N(CC(=O)NC2CCCCC2)Cc2ccccc2)c(O)c1	28µM*
C=CCn1c(Cc2ccc(OCC)cc2)nnc1SCC(N)=O	-6%
O=C(Nc1ccccc1N1CCCC1)C1CCN(C(=O)c2ccc(Cl)cc2)CC1	-2%
Cc1nn(-c2ccccc2)c(C)c1NC(=O)COC(=O)CCCOc1ccccc1	2%
Cc1cccc(OCc2nnc(SCC(=O)NC3CCCCC3)n2C)c1	18%
CCOc1ccc(NC(=O)CCC(=O)NNC(=O)c2ccc(Br)o2)cc1	-13%
Cc1ccc(S(=O)(=O)N2CCN(C(=O)c3c(C)nn(-c4ccccc4)c3Cl)CC2)cc1	-3%
Cc1ccc(C(=O)NCCc2ccccn2)cc1S(=O)(=O)N1CCOCC1	-2%
CC(C)NC(=O)C1CCN(C(=O)c2ccc(-c3ccccc3)cc2)CC1	18%
CC(C)c1nc2ccc(C(=O)O)cc2[nH]1	20%
Cc1cc(C)c(NC(=O)CCN2C(=O)c3ccccc3S2(=O)=O)c(C)c1	0%
